Assay outcomes from PubChem BioAssay.
FGF22 binding: binders of recombinant human FGF22 by thermal shift; Q9HCT0; SYPRO orange fluorescence; percent of sucrose octasulfate shift, DMSO zero; calls only at 9.99 µM; 340,000 compounds, 1.5% hits; AID 651658;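 active means melting point raised past a set limit in the mean and every replicate; three in four hits are not shown here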
Target sequence (Q9HCT0 whole entry, looked up): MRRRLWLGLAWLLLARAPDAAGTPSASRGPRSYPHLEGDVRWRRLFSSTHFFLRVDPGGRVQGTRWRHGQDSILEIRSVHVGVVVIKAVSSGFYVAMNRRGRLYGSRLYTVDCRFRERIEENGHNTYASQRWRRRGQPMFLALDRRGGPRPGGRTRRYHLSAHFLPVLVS
rRNA inh HTS: inhibits bacterial ribosomal RNA function over humanized ribosomes. E. coli WT GFP vs humanized-ribosome RFP mutants, fluorescence, 24 h; hits give low values; DMSO median 0, no signal -100. GFP signal change (wild-type ribosome), % (concentration not given with the values). 350,000 compounds, 1.6% hits. AID 720706;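 active means significant combined selectivity score with lowered wild-type GFP, culture density cut under 30%, mutant RFP and density less affected; inactive means any of these conditions unmet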; further: one replicate is shown; some compounds called inactive have numbers as strong as hits
MLL AF4-AF9 inh: MLL-AF4/AF9 protein interaction inhibition; AID 651704; P42568; inhibition, % at 10 µM; AlphaScreen, biotin-AF4 peptide binding to FLAG-AF9; 350,000 compounds, 0.47% hits;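 active means every replicate reaching a set inhibition limit, whatever the replicate mean, cut at about 25% in these data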;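 further: 0% = plate neutral control median and 100% = total signal loss; the record names both 10 and 1 µM as test concentration; the first replicate is given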
Target sequence (P42568 whole entry, looked up): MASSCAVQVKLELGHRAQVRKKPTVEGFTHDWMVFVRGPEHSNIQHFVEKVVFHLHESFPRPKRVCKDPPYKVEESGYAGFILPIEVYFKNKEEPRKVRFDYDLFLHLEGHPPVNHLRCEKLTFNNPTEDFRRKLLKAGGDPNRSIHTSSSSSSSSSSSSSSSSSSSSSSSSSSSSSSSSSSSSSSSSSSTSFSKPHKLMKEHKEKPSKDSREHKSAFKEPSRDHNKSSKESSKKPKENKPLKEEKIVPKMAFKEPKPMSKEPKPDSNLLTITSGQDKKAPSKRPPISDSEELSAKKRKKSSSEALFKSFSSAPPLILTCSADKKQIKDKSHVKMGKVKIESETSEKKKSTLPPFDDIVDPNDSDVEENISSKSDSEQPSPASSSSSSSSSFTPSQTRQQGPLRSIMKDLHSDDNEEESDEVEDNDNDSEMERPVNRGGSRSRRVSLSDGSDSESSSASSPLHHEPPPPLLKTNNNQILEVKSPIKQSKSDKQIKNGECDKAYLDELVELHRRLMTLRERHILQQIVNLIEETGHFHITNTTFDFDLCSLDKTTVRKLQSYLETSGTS
rRNA inh HTS OD600: further read-out of rRNA inh HTS, marked with its call; OD600 change, %; measured here: OD600 growth;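 optical density of the mix in the first replicate; 0 = DMSO median and -100 = no signal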
rRNA inh HTS RFP: second read-out of rRNA inh HTS, no call of its own (marks repeat the call); RFP signal change, %; measured here: RFP humanized mutant strains;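 first replicate; 0 = DMSO median and -100 = no signal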
* = called active by the depositor; i = inactive; / = not tested or not shown. The list is partial; count on the stated rates, not on these rows.

SMILES	FGF22 binding	rRNA inh HTS	rRNA inh HTS OD600	rRNA inh HTS RFP	MLL AF4-AF9 inh
Cc1cccc(-c2cccc3nccn23)c1	i	-3	-9	-2.3	1.9
O=C(C[C@@H]1C=C[C@@H](NC(=O)Nc2ccc(C(F)(F)F)cc2)[C@@H](CO)O1)NCc1cc(F)cc(F)c1	i	-1	4	-0.1	0.7
C[C@H](NC(=O)C[C@@H]1C[C@@H]2c3cc(NC(=O)CN(C)C)ccc3O[C@@H]2[C@H](CO)O1)c1ccccc1	i	4	-2	-0.6	-0.3
C[C@@H]1CN([C@H](C)CO)C(=O)c2cc(-c3cncnc3)cnc2O[C@@H]1CN(C)Cc1ccncc1	i	4	13	-3.5	-1.8
COc1ccccc1-c1ccc2c(c1)O[C@@H](CN(C)C(=O)c1ccncc1)[C@@H](C)CN([C@@H](C)CO)S2(=O)=O	i	-1	-5	-1.7	-1.8
OC(c1ccccc1)c1nc(-c2ccc3c(c2)OCO3)cs1 (centres undefined)	i	0	-11	-2.3	-1.9
Cc1noc(C)c1S(=O)(=O)Nc1cccc2c1O[C@H](CN(C)C(=O)Nc1ccc(C(F)(F)F)cc1)[C@H](C)CN([C@@H](C)CO)C2=O	i	-10	-19	4.8	1.6
COc1cc(NC(=O)c2cccc3c(-c4cccnc4)coc23)cc(OC)c1OC	i	2	11	7.3	0.8
O=C(NCc1ccccc1)C1C(c2ccccc2)=Nc2ccccc2N1C(=O)c1cccnc1 (centres undefined)	i	1	-3	-7.0	5.7
CN(C)CC#Cc1ccc([C@H]2[C@@H](CO)N3CCCCN(C(=O)CN(C)C)C[C@H]23)cc1	i	2	3	1.2	2.0
CCCN1C[C@@H](C)[C@@H](OC)CN(C)C(=O)c2cc(NC(=O)NC3CCCCC3)ccc2OC[C@H]1C	i	3	4	-1.3	-0.7
Cc1ccc(S(=O)(=O)N2C[C@H]3n4c(=O)ccc(=O)n4C[C@H](OC(=O)NCc4ccccc4)[C@@]3(O)C2)cc1	/	1	5	6.2	-3.0
CCCCCn1nnnc1-c1nc2cc3ccccc3cc2[nH]c1=O	i	-19*	-5.5*	8.2*	-1.5
C[C@@H]1CN([C@@H](C)CO)C(=O)c2cccc(NS(=O)(=O)c3ccccc3)c2O[C@H]1CN(C)S(=O)(=O)c1ccccc1	i	-2	-1	-0.8	0.3
CCC(=O)N1[C@@H]2Cn3c(ccc(C4=CCCC4)c3=O)[C@H]1[C@@H](C(=O)NCC1CCCCC1)[C@@H]2CO	i	2	3	1.8	-0.9
COc1ccc(NC(=O)N(C)C[C@H]2OCCCC[C@@H](C)Oc3ccc(NC(=O)Nc4ccc(C(F)(F)F)cc4)cc3C(=O)N([C@@H](C)CO)C[C@@H]2C)cc1	i	4	6	2.1	0.8
O=S(=O)(c1ccccc1)N1CCCCN2[C@H](C1)[C@H](c1ccc(C#CC3CCCC3)cc1)[C@@H]2CO	i	8	24	6.2	2.6
CNC[C@H]1Oc2ccc(NS(=O)(=O)c3cccs3)cc2C(=O)N([C@H](C)CO)C[C@H]1C	i	3	3	0.7	-2.4
CCC(=O)N1C[C@@H](O)COC[C@@H]2O[C@@H](CC(=O)NCc3ccc(Oc4ccccc4)cc3)CC[C@H]21	i	-2	2	-1.9	0.2
C[C@H](CO)N1C[C@H](C)[C@@H](CN(C)S(=O)(=O)c2cn(C)cn2)Oc2ccc(NS(=O)(=O)c3ccc(Cl)cc3)cc2CC1=O	i	0	4	-2.1	-1.5
COc1ccc(NC(=O)C2(C)Cc3c(-c4cccc(NC(C)=O)c4)ccnc3O2)cc1OC (centres undefined)	i	3	7	-3.4	2.6
C[C@@H]1CCCCO[C@@H](CN(C)CC2CC2)[C@@H](C)CN([C@H](C)CO)C(=O)c2cc(NC(=O)c3ccncc3)ccc2O1	i	6	10	-1.7	-1.2
CO[C@H]1CN(C)C(=O)c2cc(NC(=O)NC3CCCCC3)ccc2OC[C@@H](C)N(CC2CC2)C[C@H]1C	i	6	15	-2.1	-0.5
O=C(Nc1ccc(Cl)cc1)N1C[C@@H]2[C@H](c3ccccc31)[C@@H](CO)N2CC1CCCCC1	i	-58	-70	-19	7.9
O=C(c1ccccc1)N1C[C@H]2[C@@H](c3ccccc31)[C@@H](CO)N2S(=O)(=O)c1ccccc1	i	1	9	-1.2	-2.4
C[C@H]1CCCCO[C@H](CN(C)Cc2ccc3c(c2)OCO3)[C@@H](C)CN([C@@H](C)CO)C(=O)c2cc(N(C)C)ccc2O1	i	-1	-4	2.0	13
CS(=O)(=O)N1[C@@H](CO)[C@@H](c2ccccc2)C12CN(C(=O)c1ccccc1F)C2	i	0	12	0.6	0.3
CN(C)CCNc1nc(Oc2ccccc2)c2sccc2n1	i	8	15	0.4	6.7
COc1ccccc1CN1C[C@H](C)[C@@H](OC)CN(C)C(=O)c2ccc(NC(C)=O)cc2OC[C@@H]1C	i	1	-4	0.5	6.9
CCC(=O)N1[C@@H]2Cn3c(ccc(C4=CCCC4)c3=O)[C@H]1[C@@H](C(=O)N[C@@H](C)c1ccccc1)[C@@H]2CO	i	1	12	-2.9	3.0
C[C@H](CO)N1C[C@H](C)[C@H](CN(C)S(=O)(=O)c2cccs2)OCCCC[C@H](C)Oc2ccc(NS(=O)(=O)c3ccccc3)cc2C1=O	i	-3	0	0.6	-2.1
C[C@@H]1CN([C@H](C)CO)C(=O)c2cc(NC(=O)CCC(F)(F)F)ccc2O[C@@H]1CN(C)C(=O)Nc1ccc(F)cc1	i	1	5	-2.8	-0.7
O=C(NCC[C@@H]1CC[C@@H](NC(=O)C2CCCC2)[C@@H](CO)O1)c1cnccn1	i	0	11	-2.9	0.1
COc1ccc(C(=O)C(C)OC(=O)C2CC3CCCC(C2)C3=O)cc1 (centres undefined)	i	-3	-5	1.3	-0.5
NCC[C@@H]1CC[C@H](NC(=O)Nc2ccc(F)cc2)[C@@H](CO)O1	i	0	13	-0.4	-1.0
O=C(C[C@@H]1C[C@@H]2c3cc(NS(=O)(=O)c4ccc(F)cc4)ccc3O[C@@H]2[C@@H](CO)O1)NCc1ccc(Oc2ccccc2)cc1	i	4	-11	6.1	3.5
COc1ccc(-c2coc3c(C(=O)Nc4ccc(OC)nc4)cccc23)c(C)c1	i	-5	-29	2.4	-1.8
CC1C(=O)N(Cc2cn(CCC3OCCO3)nn2)CCS(=O)(=O)N1Cc1ccc(-c2ccc(Cl)cc2)cc1 (centres undefined)	i	-6	-29	-4.7	2.8
COC(=O)C[C@@H]1C[C@@H]2c3cc(NC(=O)Nc4ccccc4)ccc3O[C@@H]2[C@H](CO)O1	i	-7	-2	-5.4	-1.7
O=C(N[C@@H]1CC[C@H](CCNS(=O)(=O)c2ccc(Cl)cc2)O[C@H]1CO)c1cccc(F)c1	i	0	-3	1.1	-0.2
C[C@@H]1CCCCO[C@H](CN(C)C(=O)c2ccccc2)[C@@H](C)CN([C@H](C)CO)C(=O)c2cc(NC(=O)Nc3ccc(C(F)(F)F)cc3)ccc2O1	i	4	7	-0.5	-0.1
O=C(C[C@H]1C=C[C@@H](NC(=O)C2CC2)[C@@H](CO)O1)NCc1ccccc1Cl	i	-1	0	-1.1	-1.1
Cc1ccc2nc(-c3ccco3)c(Cc3cccc(Cl)c3)n2c1	i	3	-4	1.3	0.6
COCCN1CCCc2nc(-c3ccc(Br)cc3)ccc21	i	-11	-3	6.5	16
C[C@@H]1CN([C@@H](C)CO)C(=O)c2cc(NC(=O)C3CCCCC3)ccc2O[C@@H](C)CCCCO[C@H]1CN(C)C(=O)Nc1ccccc1	i	-2	2	-0.6	-1.6
Cc1ccc(S(=O)(=O)NC(=O)C2(C)CCN2C(=O)Cc2ccc(C(C)(C)C)cc2)cc1 (centres undefined)	i	0	-1	-0.1	-3.0
COc1ccc(CNC(=O)C[C@@H]2C=C[C@H](NC(=O)Nc3ccc4c(c3)OCO4)[C@H](CO)O2)cc1	i	2	-2	-0.3	-1.3
C[C@H]1CN([C@@H](C)CO)C(=O)Cc2cc(NC(=O)C3CCCCC3)ccc2O[C@H]1CN(C)Cc1ccccc1	i	-2	3	2.5	1.9

Arranged by number of heavy atoms (smallest number first): some entries from above
SMILES	FGF22 binding	rRNA inh HTS	rRNA inh HTS OD600	rRNA inh HTS RFP	MLL AF4-AF9 inh
O=C(C[C@H]1C=C[C@@H](NC(=O)C2CC2)[C@@H](CO)O1)NCc1ccccc1Cl	i	-1	0	-1.1	-1.1
COc1ccc(-c2coc3c(C(=O)Nc4ccc(OC)nc4)cccc23)c(C)c1	i	-5	-29	2.4	-1.8
COc1ccc(CNC(=O)C[C@@H]2C=C[C@H](NC(=O)Nc3ccc4c(c3)OCO4)[C@H](CO)O2)cc1	i	2	-2	-0.3	-1.3
CC1C(=O)N(Cc2cn(CCC3OCCO3)nn2)CCS(=O)(=O)N1Cc1ccc(-c2ccc(Cl)cc2)cc1 (centres undefined)	i	-6	-29	-4.7	2.8
C[C@@H]1CN([C@@H](C)CO)C(=O)c2cc(NC(=O)C3CCCCC3)ccc2O[C@@H](C)CCCCO[C@H]1CN(C)C(=O)Nc1ccccc1	i	-2	2	-0.6	-1.6

Continuation:
SMILES	FGF22 binding	rRNA inh HTS	rRNA inh HTS OD600	rRNA inh HTS RFP	MLL AF4-AF9 inh
COc1ccc(CN(C)C[C@H]2Oc3c(NC(=O)Nc4c(C)noc4C)cccc3C(=O)N([C@@H](C)CO)C[C@H]2C)cc1	i	5	6	-2.4	-1.6
O=C(N[C@H]1CC[C@H](CCn2cc(-c3ccccn3)nn2)O[C@@H]1CO)c1ccncc1	i	0	-4	-0.1	-2.0
CNC[C@@H]1Oc2ccc(NS(=O)(=O)c3c(C)noc3C)cc2CC(=O)N([C@H](C)CO)C[C@H]1C	i	1	0	-2.7	2.0
Cc1ccc(S(=O)(=O)N(C)C[C@@H]2OCCCC[C@H](C)Oc3ccc(NS(=O)(=O)c4ccc(F)cc4)cc3C(=O)N([C@@H](C)CO)C[C@H]2C)cc1	i	-1	-8	-4.1	-1.5
CC(C)CC#Cc1cnc2c(c1)C(=O)N([C@@H](C)CO)C[C@H](C)[C@@H](CN(C)C(=O)Nc1cc(F)ccc1F)O2	i	-1	-8	6.8	-2.1
CCCNC(=O)NC[C@H]1[C@H](c2ccc(C3=CCCC3)cc2)[C@H](CO)N1C(=O)CC	i	0	5	1.5	-4.5
CCOC(=O)C1=CCN(S(=O)(=O)c2ccc(Cl)cc2)C1c1ccc(C)cc1 (centres undefined)	i	-5	-7	0.3	-1.6
C/C=C/c1ccc([C@H]2[C@H](CO)N(C(=O)COC)[C@H]2CNC(=O)CC)cc1	i	2	7	-3.1	-2.6
Cc1noc(C)c1NC(=O)Nc1ccc2c(c1)C(=O)N([C@H](C)CO)C[C@@H](C)[C@H](CN(C)C(=O)NC1CCCCC1)OCCCC[C@@H](C)O2	i	-1	0	0.8	0.6
CCCNC(=O)N1CC[C@@H]2[C@@H](CO)N(C)c3ccc(-c4ccccc4)cc3[C@@H]21	i	-2	-10	6.5	3.2
Cc1noc(C)c1S(=O)(=O)Nc1cccc2c1O[C@@H](CN(C)Cc1ccccc1)[C@@H](C)CN([C@@H](C)CO)C2=O	i	2	-1	-2.2	-2.5
C[C@H](NC(=O)C[C@H]1C[C@H]2c3cc(NC(=O)CN(C)C)ccc3O[C@H]2[C@@H](CO)O1)c1ccccc1	i	-1	3	-4.9	0.0
CC1(C(=O)NCc2ccc3c(c2)OCO3)CCN1C(=O)CC1CCCC1 (centres undefined)	i	8	7	1.7	-1.4
NC(=S)NN=C1CCCCCCCCCC1	i	-7	3	0.2	3.8
COCCCN1C(=O)C(CC(=O)NC2CCCCC2)CC(C(=O)N(C)C)=C1C (centres undefined)	i	14	7	0.8	-4.6
CCCN1[C@H](C(=O)N[C@@H](C)c2ccccc2)[C@@H](CO)[C@@H]2Cn3c(ccc(-c4ccc(F)cc4)c3=O)[C@@H]21	i	-11	-23	14	3.7
Cc1ccc(-c2nc3c(c(SCC(=O)N4CCCC4)n2)COC(C)(C)C3)cc1	i	10	6	2.7	-2.5
Cc1ccc(S(=O)(=O)N2CCC(=O)N([C@H](COCc3ccc(Cl)cc3)Cc3ccccc3)CC2)cc1	i	0	-4	1.8	-0.7
